# Screening results deposited in PubChem by Johns Hopkins Ion Channel Center.
# KCNQ2 pot: potentiators of rat KCNQ2 potassium channel; Potassium voltage-gated channel subfamily KQT member 2 (Rattus norvegicus), O88943; CHO-K1 KCNQ2, FluxOR thallium flux fluorescence; hits give high values; B-score at 10 µM; 310,000 tested, 0.54% active; AID 2239, 2010;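 active = fluorescence ratio B-score at least 3 SD of library B-scores, with initial fluorescence B-score within 3 SD, cut at about 5.3 in these data; same plate scores as AID 2156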;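 note: B-score of peak minus minimum over baseline fluorescence ratio after K+ and Tl+ stimulus; positive B-score means potentiation of KCNQ2 with more thallium influx and brighter signal; only the inactives scoring about 0 or higher are listed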
# Target sequence (O88943 whole entry, looked up): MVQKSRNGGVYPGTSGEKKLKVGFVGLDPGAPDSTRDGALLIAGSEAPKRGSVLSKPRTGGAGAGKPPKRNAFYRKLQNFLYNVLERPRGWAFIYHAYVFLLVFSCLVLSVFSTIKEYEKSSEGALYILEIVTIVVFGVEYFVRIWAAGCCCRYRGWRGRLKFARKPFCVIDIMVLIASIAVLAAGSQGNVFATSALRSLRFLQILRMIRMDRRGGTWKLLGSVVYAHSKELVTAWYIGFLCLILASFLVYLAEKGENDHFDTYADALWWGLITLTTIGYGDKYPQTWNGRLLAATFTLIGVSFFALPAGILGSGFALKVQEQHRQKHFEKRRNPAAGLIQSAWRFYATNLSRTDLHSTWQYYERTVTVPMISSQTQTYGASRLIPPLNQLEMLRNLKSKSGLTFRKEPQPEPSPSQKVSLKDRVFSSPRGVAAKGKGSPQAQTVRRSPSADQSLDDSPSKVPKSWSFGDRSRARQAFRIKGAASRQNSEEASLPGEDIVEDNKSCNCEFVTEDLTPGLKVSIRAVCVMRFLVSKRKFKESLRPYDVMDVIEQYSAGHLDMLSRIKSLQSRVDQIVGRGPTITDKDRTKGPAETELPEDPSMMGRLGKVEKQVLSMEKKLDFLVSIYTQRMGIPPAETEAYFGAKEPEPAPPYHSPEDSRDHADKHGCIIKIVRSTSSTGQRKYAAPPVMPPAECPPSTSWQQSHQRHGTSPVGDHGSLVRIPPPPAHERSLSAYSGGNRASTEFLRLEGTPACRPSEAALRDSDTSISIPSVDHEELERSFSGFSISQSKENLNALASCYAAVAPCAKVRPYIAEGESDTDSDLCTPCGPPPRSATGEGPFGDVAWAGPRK
# KCNQ2 pot baseline: second read-out of KCNQ2 pot, no call of its own (marks repeat the call); B-score; compound at 10 µM; measured here: initial fluorescence intensity artifact check;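 brightness before thallium and not channel activity; 0 = typical well and far values either way flag optical interference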
# Numbers without * were called inactive. Not all compounds are listed; the hit share may differ from the screen's.
no.	Compound	KCNQ2 pot	KCNQ2 pot baseline
1	COc1ccc(C(=O)NNC(=O)CN(C)S(=O)(=O)c2ccc(Cl)cc2)c(OC)c1OC	0.9	1.12
2	COc1ccc(N=c2ssnc2Cl)cc1	0.65	-2.54
3	COc1ccc(-n2ccnc2SCC(=O)Nc2ccccc2)cc1	0.01	0.63
4	O=[N+]([O-])c1cc([N+](=O)[O-])c2cc(-c3cccnc3)[nH]c2c1	0.32	1.33
5	Cc1c(CNC(=O)C2CCC(=O)N(CCc3ccccc3)C2)cnn1C (stereo unspecified)	0.71	-0.51
6	Cc1ccc2cc(CN(CC3CCCO3)S(=O)(=O)c3cccc4nsnc34)c(=O)[nH]c2c1 (stereo unspecified)	0.69	0.77
7	O=C(c1ccc(F)cc1)N1CCN(C2=NS(=O)(=O)c3ccccc32)CC1	2.94	-0.07
8	CCCSc1nc2sc3c(c2c(=O)n1-c1ccc(OC)cc1)CCN(C)C3	0.49	1.03
9	CS(=O)(=O)c1ccc2nc(NC(=O)Cc3ccccc3)sc2c1	0.02	-0.66
10	CCSc1nnc(NC(=O)c2ccc(C)o2)s1	0.05	-1.19
11	O=C1c2cccnc2C(=O)N1Cc1ccc(F)cc1S(=O)(=O)NCc1ccco1	1.94	0.08
12	Cc1ccc(C)c(NC(=S)N2CCC(N(C)CC3CCCO3)CC2)c1 (stereo unspecified)	0.37	1.04
13	O=C(CN1CCN(Cc2ccc3c(c2)OCO3)CC1)Nc1ccc(F)cc1	0.74	0.48
14	COc1ccc(-n2nnnc2-c2ccccc2)cc1	0.61	0.51
15	CCc1ccccc1NC(=S)N1CCN(c2ccccn2)CC1	0.06	-1.74
16	CCOc1ncccc1C(=O)N=c1sccn1C	1.52	0.17
17	COc1cc(OC)nc(-n2ncc(OC)c(Br)c2=O)n1	0.04	-0.02
18	CC1=NN(C(=O)c2ccc(Cn3nc(C)c([N+](=O)[O-])c3C)o2)C(O)(C(F)(F)F)C1 (stereo unspecified)	0.32	-0.73
19	Cc1ccc(OCCN2CCNCC2)c([N+](=O)[O-])c1	0.08	0.81
20	CCCc1nnc(NC(=O)c2cccnc2)s1	1.09	0.89
21	S=c1[nH]nc(C2CCCCC2)n1/N=C/c1ccccc1Br	0.57	-0.6
22	Cc1[nH]ccc(=O)c1OC1OC(CO)C(O)C(O)C1O (stereo unspecified)	0.89	-1.63
23	O=C(NCc1cccnc1)Nc1cc(Cl)cc(Cl)c1	0.4	-0.18
24	Cc1cc(-c2onc(C)c2C(=O)N/N=C/c2ccccc2)no1	1.31	-0.59

# Look-ups from the results shown:
# Under KCNQ2 pot, no. 23 shows 0.4
# Under KCNQ2 pot, no. 20 shows 1.09
# Under KCNQ2 pot baseline, no. 21 shows -0.6

# (listing goes on)
no.	Compound	KCNQ2 pot	KCNQ2 pot baseline
25	COc1cccc(N2C(=O)C3ON(c4ccccc4)C(c4cccs4)C3C2=O)c1 (stereo unspecified)	0.13	0.03
26	CC(=O)c1ccc(OCC(O)CN2CCN(S(=O)(=O)c3cccc(Br)c3)CC2)cc1 (stereo unspecified)	0.04	-1.74
27	CC(C)(C)c1ccc(CNc2ccc([N+](=O)[O-])cn2)cc1	2.46	-0.78
28	Cc1ccc(/C=C2\CCCC3=C2NC(=S)NC3c2ccc(C)cc2)cc1 (stereo unspecified)	1.41	-2.68
29	COC(=O)c1ccccc1NC(=O)C1CCN(C(=O)c2cc(OC)cc(OC)c2)CC1	0.04	-2.17
30	O=C(CSc1nnc2c(n1)[nH]c1ccccc12)Nc1ccc(N2CCOCC2)cc1	0.59	-0.7
31	CC(C(=O)NCc1ccco1)n1nc(-c2ccccc2)c2cc(Cl)ccc21 (stereo unspecified)	0.13	-0.42
32	COc1ccc(S(=O)(=O)N(C)C2CCN(C)CC2)cc1	0.51	0.3
33	CC(C)c1cc(C(=O)Nc2cccnc2)no1	0.15	0.52
34	CN(Cc1cccs1)C(=O)COC(=O)CNC(N)=O	1.27	1.51
35	Cc1nn(-c2ccccc2)c(Cl)c1/C=N/NC(N)=O	0.45	-0.05
36	Cc1cc2cc3c(=O)[nH]c(=O)[nH]c3nc2cc1C	0.43	0
37	CCOc1ccc(C(C)=O)cc1N1C(=O)C2C(C1=O)C1C=CC2C12CC2 (stereo unspecified)	1.09	-0.24
38	COc1ccc(CCNC(=O)Cc2ccc(OC)c(OC)c2)cc1OC	0.03	0.39
39	COc1ccc(-n2nnnc2SCC(=O)c2ccc(OC)c(OC)c2)cc1	0.54	0.04
40	CC1(C)Cc2c(sc(NC(=O)c3ccc(S(=O)(=O)N4CCCCCC4)cc3)c2C#N)C(C)(C)N1	0.66	0.51
41	O=C(NC1CS(=O)(=O)CC1NCc1ccco1)c1ccccc1 (stereo unspecified)	0.45	1.77
42	Cc1ccc(C)c(NC(=S)NC(C)C(c2cccs2)N2CCOCC2)c1 (stereo unspecified)	1.25	-0.13
43	COc1cccc(-n2nc(C(N)=O)c(O)cc2=O)c1	0.28	1.96
44	CCN(CC)CCCNC(=O)c1ccc2c3n(nc2c1)-c1ccc(Cl)cc1CO3	1.04	-1.65
45	C=CCc1cccc2cc(C(=O)NCc3cccnc3)c(=O)oc12	0.61	0.67
46	Cc1ccc(S(=O)(=O)NCCN2CCOCC2)c(C)c1C	0.11	-0.01
47	CC(=O)Nc1ccc(NC(=O)C2CCCN(c3ncccn3)C2)cc1 (stereo unspecified)	1.8	-0.7
48	CC(NC(=O)NCC1CCCO1)(C(F)(F)F)C(F)(F)F (stereo unspecified)	1.34	-1.54
49	CC(C)(C)OC(=O)C1C(=O)CC(C)(O)C(C(=O)OC(C)(C)C)C1c1ccco1 (stereo unspecified)	1.58	-0.64
50	CC(=O)Nc1ccccc1NC(=O)c1ccc(C)c(C)c1	1.62	-0.94
51	O=C1NC(=S)N/C1=C/c1cccc([N+](=O)[O-])c1O	0.78	-0.58
52	C=CCc1ccc(OCC(O)CN2CCN(c3ccccc3)CC2)c(OC)c1 (stereo unspecified)	0.74	-1.8
53	CC(C)[C@H](N)c1nnc(SCC(=O)c2ccc(Cl)cc2)o1	0.29	-0.65
54	CCNC(=S)Nc1ccc(C)c(S(=O)(=O)Nc2ccccc2OC)c1	0.61	-1.66
55	Cc1nnsc1NC(=O)OCC(C)C	1.05	0.19
56	COc1cccc(N2CC(NC(=O)c3ccc4ccccc4c3)CC2=O)c1 (stereo unspecified)	0.02	0.09
57	Cc1ccc2nc(S(=O)(=O)O)[nH]c2c1	0.35	0.48
58	O=C(NCCc1ccccc1)c1n[nH]c2ccccc12	0.18	0.39
59	Brc1cccc(-c2cnco2)c1	0.53	2.84
60	CCSc1nnnn1-c1ccccc1	1	-0.01
61	O=C(CSCc1c(Cl)cccc1Cl)NN1C(=O)c2ccccc2C1=O	0.1	-1.72
62	COc1cccc(CN(C)C(=O)c2ccc(NS(=O)(=O)c3ccc(F)cc3)cc2)c1OC	1.11	-0.29
63	COc1ccccc1CNC(=O)c1ccc(CS(=O)Cc2cccc(Cl)c2)o1 (stereo unspecified)	0.1	1.08
64	COC(=O)c1sc(NC(=O)c2ccc(OC)cc2OC)nc1C	0.1	0.56
65	CSCCC(NC(=O)c1cc([N+](=O)[O-])cc([N+](=O)[O-])c1)c1nc2ccccc2[nH]1 (stereo unspecified)	0.03	0.32
66	O=C1c2ccccc2C(=O)N1CCCc1nc2ccccc2c(=O)n1-c1cccnc1	0.67	0.91
67	CCn1cnc2c1c(=O)n(CC(=O)O)c(=O)n2Cc1ccccc1	3.6	1.35
68	COc1ccc(NC(=O)CC(c2ccco2)C(C)C)cc1 (stereo unspecified)	0.42	-0.98
69	CCCCCCN1C2=NCCCN2c2ccccc21	1.3	-1.72
70	CC1CC(C)CN(C(=O)CCC(=O)Nc2nnc(C3CCCCC3)s2)C1 (stereo unspecified)	1.39	0.71
71	Cc1ccc(Nc2cc(C)nc(-c3ccccc3O)n2)cc1	0.93	0
72	CCOCCc1nn2c(=O)cc(CSCC(=O)Nc3cccc(C)c3C)nc2s1	0.22	-0.48

# A second format for 4 compounds above:
# Values run as follows: KCNQ2 pot	KCNQ2 pot baseline
67. CCn1cnc2c1c(=O)n(CC(=O)O)c(=O)n2Cc1ccccc1
 : 3.6	1.35
72. CCOCCc1nn2c(=O)cc(CSCC(=O)Nc3cccc(C)c3C)nc2s1
 : 0.22	-0.48
68. COc1ccc(NC(=O)CC(c2ccco2)C(C)C)cc1 (stereo unspecified)
 : 0.42	-0.98
69. CCCCCCN1C2=NCCCN2c2ccccc21
 : 1.3	-1.72

# Reformatted with each value named: part of the list above.
1. COc1ccc(C(=O)NNC(=O)CN(C)S(=O)(=O)c2ccc(Cl)cc2)c(OC)c1OC
  KCNQ2 pot: 0.9; KCNQ2 pot baseline: 1.12
13. O=C(CN1CCN(Cc2ccc3c(c2)OCO3)CC1)Nc1ccc(F)cc1
  KCNQ2 pot: 0.74; KCNQ2 pot baseline: 0.48

# The listing continues:
no.	Compound	KCNQ2 pot	KCNQ2 pot baseline
73	CCOc1ccc(NC(=O)CN(C)C(=O)c2c(C)nn(-c3ccc(F)cc3)c2Cl)cc1OCC	1.59	-0.92
74	Cc1cccc(N(Cc2cc3ccc(C)cc3[nH]c2=O)C(=O)c2ccco2)c1	0.17	0.26
75	Cc1nn(-c2ccc(F)cc2)c(C)c1CN1CCN(CCC(C)C)C(CCO)C1 (stereo unspecified)	0.52	0.1
76	CC(=O)Nc1cccc(C(=O)OCC(=O)NC(=O)Cc2ccccc2)c1	0.08	0.1
77	COc1ccc(C)c2sc(NNC(=O)COc3ccccc3)nc12	1.22	-2.05
78	CCC(C(=O)NCCCN1CC(C)CC(C)C1)n1nc(C)c2sc3ccccc3c2c1=O (stereo unspecified)	1.95	0.84
79	CCOC(=O)C1CCCN(C(=O)c2ccc(C)c(NC(=O)C3=C(C)OCCS3)c2)C1 (stereo unspecified)	1.45	0.08
80	O=C(NCc1ccccn1)C1CCN(S(=O)(=O)N2CCCCC2)CC1	0.14	-0.37
81	CCN1/C(=C2\OC(=S)N(C)C2=O)Sc2ccccc21	0.59	-2.04
82	CN(C)C(=O)c1cc([N+](=O)[O-])cc([N+](=O)[O-])c1N(C)C	0.4	-0.34
83	O=C(O)CNC(=O)c1ccc(N2CCOCC2)cc1[N+](=O)[O-]	0.87	-0.49
84	COC(Cn1c(C)c(C(C)=O)c(C(C)=O)c1C)OC	0.77	-0.54
85	O=C1Nc2ccccc2C1(O)C/C(=N/O)c1ccccc1 (stereo unspecified)	0.58	0.47
86	COCCNC(=O)c1ccc(-n2c(SCc3ccncc3)nc3ccccc3c2=O)cc1	0.08	-0.32
87	CC(=O)OC1=Cc2c(ccc3ccc(=O)oc23)OC1(C)C	0.85	-0.98
88	O=C(Nc1cccc2c1C(=O)NC2=O)c1ccccc1[N+](=O)[O-]	0.45	-0.56
89	COc1ccc(NC(=O)CC2C(=O)N(c3ccc(Cl)cc3)C(=S)N2CCc2ccncc2)cc1 (stereo unspecified)	1.51	1.48
90	COc1ccc(CCNC(=O)C2CCC(=O)N(C3CCCCCC3)C2)cc1 (stereo unspecified)	0.08	-0.11
91	O=C(Cn1cnc2sc3c(c2c1=O)CCCC3)NCC(=O)Nc1c(F)cccc1F	0.12	-0.76
92	O=C(c1cccs1)N1CCN=C1SCc1ccccc1F	0.21	-0.52
93	CCOC(=O)CN(c1cc([N+](=O)[O-])ccc1OC)S(C)(=O)=O	1.32	-0.83
94	COc1ccc([N+](=O)[O-])cc1NC(=O)CCSCCc1ccccn1	0.2	0.02
95	O=C(NCC1CCCO1)c1cc(C(=O)c2ccc(Cl)cc2Cl)c[nH]1 (stereo unspecified)	0.46	1.48
96	COc1ccc(NC(=O)/C=C/c2cc(Br)ccc2OC)cc1	0.3	0.99
97	CC1c2c([nH]c3ccccc23)CCC1C(=O)O (stereo unspecified)	0.47	0.88
98	COc1ccc(-c2cc(C(F)F)n3ncc(C(=O)N4CCN(C)CC4)c3n2)cc1	0.01	-1.36
99	O=C(CCC(=O)Nc1ccccc1Cl)N/N=C/c1ccccc1	1.54	-0.64
100	O=C(Nc1ccc(F)cc1F)N1CCN(C/C=C/c2ccccc2)CC1	1.8	0.38
101	COc1ccc(C(=O)CSc2nc3[nH]ncc3c(=O)[nH]2)cc1	0.26	0.04
102	CCC(=O)Nc1c2c(nn1-c1ccc(OC)cc1)CS(=O)C2 (stereo unspecified)	0.45	0.68
103	Cc1ccc(NC(=S)NC(=O)c2ccc(-c3ccccc3)cc2)cc1	1.51	1.45
104	CC(C)c1ccc(OCCCN2CCCC2)cc1	2.07	-0.07

# From no. 103 as far as 104, copied from above:
no.	Compound	KCNQ2 pot	KCNQ2 pot baseline
103	Cc1ccc(NC(=S)NC(=O)c2ccc(-c3ccccc3)cc2)cc1	1.51	1.45
104	CC(C)c1ccc(OCCCN2CCCC2)cc1	2.07	-0.07

# Next section
no.	Compound	KCNQ2 pot	KCNQ2 pot baseline
105	CCOc1ccc(NC(=S)NCc2ccc3c(c2)OCO3)cc1	0.98	-1.02
106	CCc1ccc(CN2CCC(n3nccc3NC(=O)Cc3ccccc3)CC2)o1	0.27	-0.08
107	CC(=O)c1ccc(S(=O)(=O)Nc2cccc(-n3cnnn3)c2)cc1	0.69	0.87
108	COC(=O)CCCCCNC(=S)Nc1ccc2[nH]c(=O)[nH]c2c1	0.09	0.5
109	Cc1cccn2c(CNCCc3ccco3)c(C(=O)N3CCOCC3)nc12	0.51	-0.72
110	CCOC(=O)C(NC(=O)Nc1ccc(O)cc1)(c1ccccc1)C(F)(F)F (stereo unspecified)	2.45	0.09
111	C=CCN1CCN(C(CC(C)C)c2nnnn2CCOC)CC1 (stereo unspecified)	0.12	0
112	CCOC(=O)c1cc(NC(=O)C2C3CCC(O3)C2C(=O)O)cc(C(=O)OCC)c1 (stereo unspecified)	0.06	0.57
113	COC(=O)COc1cccc(-n2cnnn2)c1	0.06	-0.66
114	CCn1c(Cc2ccc(OC)cc2)nnc1SCc1nc2ccccc2c(=O)[nH]1	0.87	-1.04
